Bioassay records: PubChem BioAssay, Johns Hopkins Ion Channel Center
KCNQ2 inh: KCNQ2 potassium channel inhibitors, primary screen, cell-based, CHO-K1, FluxOR thallium flux, B-score (AID 2156). B-score at 10 µM. 20 min; active compounds read low; only compounds with negative scores are shown here; some inactives read as strong as hits. 310,000 compounds, 1.1% hits. Potassium voltage-gated channel subfamily KQT member 2 (Rattus norvegicus), O88943;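 active = fluorescence ratio B-score at most minus 3 library SDs, with starting brightness B-score within 2 library SDs, cut at about -5.5 in these data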
Target sequence (O88943 whole entry, looked up): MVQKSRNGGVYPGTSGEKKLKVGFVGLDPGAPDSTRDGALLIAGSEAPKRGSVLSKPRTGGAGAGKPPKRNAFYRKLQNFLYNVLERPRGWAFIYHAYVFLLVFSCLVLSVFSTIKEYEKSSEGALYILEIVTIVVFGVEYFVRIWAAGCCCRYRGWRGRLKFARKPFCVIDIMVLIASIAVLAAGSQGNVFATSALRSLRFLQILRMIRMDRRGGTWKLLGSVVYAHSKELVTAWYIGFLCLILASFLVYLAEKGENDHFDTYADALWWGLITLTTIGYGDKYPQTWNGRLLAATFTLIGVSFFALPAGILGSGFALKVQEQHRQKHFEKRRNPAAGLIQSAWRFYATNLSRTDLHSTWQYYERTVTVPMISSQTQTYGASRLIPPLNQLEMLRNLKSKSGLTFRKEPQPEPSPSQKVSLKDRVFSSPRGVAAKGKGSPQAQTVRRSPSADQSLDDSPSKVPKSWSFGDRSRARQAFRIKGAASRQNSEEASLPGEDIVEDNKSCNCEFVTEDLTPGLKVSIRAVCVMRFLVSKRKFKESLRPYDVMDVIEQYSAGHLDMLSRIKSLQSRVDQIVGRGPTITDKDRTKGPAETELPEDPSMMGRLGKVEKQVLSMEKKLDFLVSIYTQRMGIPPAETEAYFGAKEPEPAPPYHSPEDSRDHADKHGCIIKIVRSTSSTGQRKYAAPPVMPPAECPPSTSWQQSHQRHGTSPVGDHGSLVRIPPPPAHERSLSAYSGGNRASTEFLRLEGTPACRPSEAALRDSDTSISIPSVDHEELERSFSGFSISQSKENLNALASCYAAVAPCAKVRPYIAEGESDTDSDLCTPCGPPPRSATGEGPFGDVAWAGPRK
KCNQ2 inh baseline: second read-out of KCNQ2 inh, no call of its own (marks repeat the call); B-score; measured here: initial fluorescence intensity artifact check;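 brightness before thallium and not channel activity; 0 = typical well and far values either way flag optical interference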
* = called active by the depositor; i = inactive.

entry	molecule	KCNQ2 inh	KCNQ2 inh baseline
1	Cc1ccc(C(=O)NCC(=O)OCCOc2cccc(Cl)c2)cc1	i	1.43
2	COc1ccccc1N1CCN(C(=O)c2ccc(CN3CCc4ccccc4C3)cc2)CC1	i	-0.54
3	O=C(CN1CCN(c2ccccn2)CC1)Nc1cccc(Cl)c1Cl	-7.24*	-0.39*
4	O=C(COC(=O)CNC(=O)c1ccccc1Cl)Nc1ncc(C(F)(F)F)cc1Cl	i	1.65
5	CC(=O)NC1C(Oc2ccccc2C)OC2COC(c3ccco3)OC2C1O (stereo not given)	i	0.38
6	C=CCNC(=O)/C(C#N)=C/c1c(N2CCN(c3cccc(Cl)c3)CC2)nc2c(C)cccn2c1=O	i	-0.15
7	COc1cc(C2C3=C(CC(C)(C)CC3=O)OC3=C2C(=O)CC(C)(C)C3)cc([N+](=O)[O-])c1O	i	0.51
8	O=C(N/N=C/c1ccc(O)cc1)c1ccc(NC(=O)c2ccccc2Br)cc1	i	-0.17
9	Cn1cc(CN2CCCC(C(=O)c3nccn3C)C2)c(-c2cccc(Cl)c2)n1 (stereo not given)	i	-1.05
10	COC(=O)/C(C#N)=C/c1ccc(N2CCOCC2)c([N+](=O)[O-])c1	i	-0.02
11	CC(C)CCCN1C(Nc2ccccc2)=NC[C@@H]1CC(C)C	i	2.17
12	COc1cc(C)nc(SCC(N)=O)n1	i	-0.23
13	O=C(NCc1ccco1)/C(=C/c1ccc(C(F)(F)F)cc1)c1nc2ccccc2[nH]1	i	-0.86
14	Cc1cccc(CN2C(=O)[C@@H]3Cc4c([nH]c5ccccc45)C(C)(C)N3C2=O)c1	i	-1.19
15	Cc1ccc2nc(C)cc(C(=O)Nc3nccs3)c2c1	i	0.52
16	N#Cc1ccc(CSc2ncccn2)cc1	i	0.55

Profiles as entered above.
Shown for CC(C)CCCN1C(Nc2ccccc2)=NC[C@@H]1CC(C)C = KCNQ2 inh = i; KCNQ2 inh baseline = 2.17
Shown for COc1cc(C)nc(SCC(N)=O)n1 = KCNQ2 inh = i; KCNQ2 inh baseline = -0.23

The listing continues.
entry	molecule	KCNQ2 inh	KCNQ2 inh baseline
17	O=C(Nc1ccccc1OC(F)F)c1cc2c(s1)CCC2	i	1.47
18	Cc1ccc(OCC(=O)N(Cc2ccco2)C2CCS(=O)(=O)C2)cc1C (stereo not given)	i	-1.44
19	O=C(c1cc(-c2ccc(O)cc2)on1)N1CCCC1	i	-0.01
20	C=CCOc1c(CNc2ncn[nH]2)cccc1OC	i	-0.17
21	Oc1c(Cl)cc(Cl)cc1/C=N/Nc1ncc(Br)cn1	i	1.4
22	Cc1cccc(N2CCN(C(=O)n3ccnc3)CC2)c1C	i	-2.21
23	COC(=O)c1ccccc1NC(=O)Cc1nc(-c2ccccc2)sc1-c1ccc(C)cc1	i	1.2
24	COc1ccc(C(=O)NC2=Nc3ccccc3N=C(C)C2c2ccccc2)cc1 (stereo not given)	i	0.01
25	CCN(CC)CCCN1C(=O)C(O)=C(C(=O)c2ccc(C)o2)C1c1ccc(C)o1 (stereo not given)	i	-0.07
26	O=C(CCc1ccc(O)c(O)c1)N/N=C/c1cc2c(cc1[N+](=O)[O-])OCO2	i	1.34
27	Cc1cc(N2CCOCC2)n2ncc(-c3ccccc3)c2n1	i	-0.02
28	COc1ccc(NC(=O)C2CCCCN2N)cc1OCC(C)C (stereo not given)	i	-1.39
29	CC1=CC(C)(C)N(C(=O)CCl)c2ccccc21	i	-0.8
30	Cc1ccccc1NCc1ccc([N+](=O)[O-])s1	i	-0.92
31	COc1ccc(OCCCC(=O)NCCc2nc3ccccc3[nH]2)cc1	i	1.09
32	O=C(NC(NCc1ccccn1)(C(F)(F)F)C(F)(F)F)c1ccco1	i	-0.95
33	Cc1cc(C(=O)NNc2cc(Cl)ccc2Cl)no1	i	0.01
34	CCc1ccc(NC(=O)CCc2ccc(C)o2)cc1	i	-0.12
35	Cc1nc2ccccn2c1C(=O)N=Nc1c(O)[nH]c2ccccc12	i	-1.3
36	C=CCC1c2cccc(C(=O)O)c2C(=O)N1c1cccc(OC)c1 (stereo not given)	i	0.39
37	CC1CCCCC12NC(=O)N(CC(=O)NC1CCCc3ccccc31)C2=O (stereo not given)	i	-1.45
38	CC(=O)Nc1ccc(S(=O)(=O)N2CCN(CCc3ccccc3)CC2)cc1	i	-1.03
39	COc1ccc(C2=CC(=O)OC3(CCCCC3)O2)cc1	i	1.08
40	O=C(/C=C/c1cccc(Cl)c1)NCc1ccncc1	i	0.45
41	COc1ccc(C(CNC(=O)c2cccc(N(C)C)c2)N2CCCC2)cc1 (stereo not given)	i	-0.28
42	O=C1CSc2ccc(S(=O)(=O)NCc3ccc(F)cc3)cc2N1	i	0.47
43	COc1cc(CCC(=O)OCC(=O)Nc2ccc3c(c2)OCO3)cc(OC)c1OC	i	-2.43
44	CC1CCN(C(=O)CSc2nc3ccccc3c(=O)[nH]2)CC1	i	-0.35
45	N/C(=N\OC(=O)c1ccc(=O)n(Cc2ccc(Cl)cc2)c1)c1ccccn1	i	-0.52
46	O=c1[nH]c(CN2CCN(S(=O)(=O)c3ccc4ccccc4c3)CC2)nc2ccccc12	i	1.95
47	Nc1c(Cl)cc2c(c1Oc1ccccc1)C(=O)c1ccccc1C2=O	i	1.33
48	CC(=O)N1CCCc2cc(S(=O)(=O)N3CCCC(C(=O)N4CCN(c5cc(C)ccc5C)CC4)C3)ccc21 (stereo not given)	i	-0.74
49	CCN(C(=O)CSc1ncccc1C(=O)OC(C)C)c1cccc(C)c1	i	-0.02
50	Cc1cc(C(=O)Nc2ccccc2C)on1	i	0.68
51	CCOC(=O)c1cc(-c2ccccc2)n(CC(=O)Nc2cc(OC)cc(OC)c2)c1C	i	0.77
52	CN(C)CCCN(C(=O)CCc1ccccc1)c1nc2ccc(Cl)cc2s1	i	0.88
53	c1ccc(Nc2nc(-c3ccccc3)nc3ccccc23)cc1	i	0.41
54	Cc1ccsc1C(=O)NNC(=O)C1CC=CCC1C(=O)O (stereo not given)	i	-1.25
55	Cc1noc(C)c1S(=O)(=O)Nc1ccc(C(C)C)cc1	i	1.22
56	CC(C)Cc1nc(N2CCCCC2)c(C#N)c2c1CCC2	i	0.09
57	Cc1c(C(=O)N2CCCC2)oc2ccc(Br)cc12	i	-0.62
58	CCOC(=O)C1=C(C)NC(C)=C(C(=O)OCC)C1C(=O)OCC(N)=O	i	-0.02
59	Cn1cnnc1SCC(=O)Nc1ccc(Cl)cc1	i	0.41
60	CN(C)CCN(C(=O)c1cccc(N2C(=O)CCC2=O)c1)c1nc2ccc(Br)cc2s1	i	-0.37
61	COc1ccc2c(c1)[nH]c1c(N3CCSCC3)ncnc12	i	0.75
62	COC(=O)CNC(=O)C(Cc1ccccc1)NS(=O)(=O)c1ccc2c(c1)c(=O)n(C)c(=O)n2C (stereo not given)	i	0.06
63	CCC(=O)Nc1cccc(NC(=O)CSc2nnc(-c3ccc(NS(C)(=O)=O)cc3)n2C)c1	i	0.67
64	CCCCNC(=O)c1ccc2c(c1)N(CC)C(=O)c1ccccc1S2(=O)=O	i	-0.55
65	Cc1ccccc1N1CCN(C2CCCN(C(=O)c3cn4cccc(C)c4n3)C2)CC1 (stereo not given)	i	-0.03
66	CCCCC(O)(CCCC)C(=O)NNc1ccccc1	i	-0.85
67	O=C1Nc2ccccc2/C1=C/c1cccnc1	i	0.07
68	O=C(COC(=O)/C=C/c1ccccc1Cl)NCCc1ccc(Cl)cc1Cl	i	-0.54
69	CCOC(=O)C1CCN(c2c(NCCN3CCN(c4ccccc4)CC3)c(=O)c2=O)CC1	i	0.03
70	COc1ccc(CCN2C(=NC(=O)CC(C)C)SC3CS(=O)(=O)CC32)cc1 (stereo not given)	i	1.09
71	CCN(CC)C(=O)Cn1cc(S(=O)(=O)CC(=O)Nc2ccc(OC)c(OC)c2)c2ccccc21	i	0.8
72	C(=C\c1ccccc1)/CSc1nnc(-c2cccnc2)n1Cc1ccco1	i	-0.1

Reprinted from the part before: two compounds; new compounds follow.
entry	molecule	KCNQ2 inh	KCNQ2 inh baseline
71	CCN(CC)C(=O)Cn1cc(S(=O)(=O)CC(=O)Nc2ccc(OC)c(OC)c2)c2ccccc21	i	0.8
72	C(=C\c1ccccc1)/CSc1nnc(-c2cccnc2)n1Cc1ccco1	i	-0.1
73	O=C(Nc1ccc(NC(=O)c2ccncc2)cc1)c1ccncc1	i	0.43
74	CC(=O)c1cccc(NC(=O)CCc2nnc3ccc(N4CCOCC4)nn23)c1	i	1.31
75	CC1CCCN(c2sc(S(C)(=O)=O)nc2S(=O)(=O)c2ccc(Cl)cc2)C1 (stereo not given)	i	-1.93
76	O=[N+]([O-])c1c(NCCCO)cc(SCc2ccco2)c2nonc12	i	-1.09
77	COc1ccc(S(=O)(=O)NCC2CCC(C(=O)O)CC2)cc1 (stereo not given)	i	-1.37
78	CC(NC(=S)Nc1ccc(S(N)(=O)=O)cc1)c1ccc2c(c1)OCO2 (stereo not given)	i	3.75
79	CCN(c1ccccc1)S(=O)(=O)c1cc(C(=O)Nc2cccc(Cl)c2)ccc1F	-8.11*	0.35*
80	Cc1cnc(NC(=O)CSc2nnc(C)n2N)s1	i	1.39
81	CC1(C)c2ccccc2N2CC(=O)N(CC(N)=O)C21C (stereo not given)	i	1.99
82	Nc1nonc1C(=O)NCCNC(=O)c1ccc(Cl)c(Cl)c1	i	-1.12
83	O=Nc1c(O)n(Cc2cccc(C(F)(F)F)c2)c2ccccc12	i	3.1
84	COc1ccc(C(C(=O)NC2CCCC2)N(C(=O)c2ccco2)c2ccccc2C(C)=O)cc1OC (stereo not given)	i	0.61
85	CCN(CC)c1ccc2cc(C(N)=O)/c(=N\NC(=O)c3ccncc3)oc2c1	i	4.16
86	Cc1ccc(NC(=O)/C(=C/C=C/c2ccccc2)NC(=O)c2ccccc2)cc1	i	-0.3
87	CC(=O)N(CN1C(=O)c2ccccc2C1=O)c1ccc2c(c1)oc1ccccc12	i	0.06
88	CCCC(=O)N1CCN(c2ccc(NC(=O)c3sc4ccccc4c3Cl)cc2)CC1	i	-1.39
89	Cc1c(Cl)cnc(NC(=O)COC(=O)c2cccc(S(=O)(=O)N3c4ccccc4CC3C)c2)c1Cl (stereo not given)	i	0.25
90	N=c1n(Cc2ccccc2)c2ccccc2n1CC(O)c1ccccc1 (stereo not given)	i	-1.78
91	CCOC(=O)/C=C/c1cnn(-c2ccccc2)c1	i	1.01
92	COc1ccccc1NC(=O)COc1coc(CN2CCN(c3ccccc3)CC2)cc1=O	i	-0.22
93	O=C(O)CC1(CC(=O)Nc2ccc(Cl)cc2C(=O)c2ccccc2)CCCC1	i	-3.24
94	CSC1=NCCN1CCOc1ccccc1	i	0.24
95	COc1ccc(NC(=O)CSc2nnc(NC(=O)c3ccco3)s2)cc1	i	-0.17
96	CN(C1=NS(=O)(=O)c2ccccc21)c1ccc(OC(=O)c2ccncc2)cc1	i	-0.25
97	CCCC(C(=O)Nc1nccs1)c1ccccc1 (stereo not given)	i	-0.18
98	Cc1cc(C(=O)CN2C(=O)NC3(CCCCC3)C2=O)c(C)n1-c1ccc2c(c1)OCO2	i	-0.59
99	O=C(c1oc(=O)c2ccccc2c1-c1ccccc1)N1CCOCC1	i	1.93
100	Nc1nnnn1/N=C/c1ccccc1O	i	1.42
101	CCCCC(CC)CNC(=O)C(=O)C1C(=O)Nc2ccccc21 (stereo not given)	i	-1.7
102	Cc1ccnc(NC(=O)CC(NC(=O)c2ccccc2Cl)c2ccccc2)c1 (stereo not given)	i	1.75
103	CC1CCN(S(=O)(=O)c2cccc(C(=O)N3CCN(c4ccc(F)cc4)CC3)c2)CC1	i	-2.07
104	O=C(c1cnn2c(C(F)(F)F)cc(-c3ccc4c(c3)OCO4)nc12)N1CCCCC1	i	0.73
105	Cc1ccsc1/C=N/NC(=O)Cc1ccc([N+](=O)[O-])cc1	i	-2.41
106	CCCC(=O)C1=C(N2CCCC2)CC(C)(C)C(C(=O)OC)C1=O (stereo not given)	i	-0.04
107	COc1ccccc1Oc1ccnc2cc(Cl)ccc12	i	-0.78
108	CCN(CCCNC(=O)CC(C(=O)N1CCc2ccccc21)n1ccnc1)c1ccccc1 (stereo not given)	i	0.11
109	S=C(NCCC(c1ccccc1)c1ccccc1)Nc1ccc(Cl)cc1	i	0.12
110	Cc1ccc(C)c(NC(=S)N(C)C)c1	i	1.13
111	O=C1CC(N2CCC(O)CC2)C(=O)N1c1ccc(Br)cc1 (stereo not given)	i	-0.96
112	Cc1cccc(C)c1OCC(=O)Nc1ccc2c(c1)OCCO2	i	1.98
113	COc1ccccc1OCC(=O)N1CCN(C(=O)COc2ccccc2OC)CC1	i	0.79
114	Cc1ccc(N(C(=O)c2csnn2)C(C(=O)NC2CCCCC2)c2ccco2)cc1 (stereo not given)	i	-1.35
115	Cc1cccc(C(=O)Oc2ccc(/C=N/NC(=O)Cc3ccc([N+](=O)[O-])cc3)cc2)c1	i	1.21
116	Clc1ccc(CSc2nnnn2-c2ccc3c(c2)OCO3)c(Cl)c1	i	-1.47
117	CCC1C(=O)CC(c2ccc([N+](=O)[O-])cc2)NC1c1ccc([N+](=O)[O-])cc1 (stereo not given)	i	-0.51
118	COc1ccc(CN2C(=O)CS/C2=N/N=C/c2ccccc2)cc1	i	-0.56
119	CCOc1ccc(NC(=O)n2ncc3c(C)cccc32)cc1	i	0.98

An excerpt from above in order of count of non-hydrogen atoms, largest number first.
entry	molecule	KCNQ2 inh	KCNQ2 inh baseline
113	COc1ccccc1OCC(=O)N1CCN(C(=O)COc2ccccc2OC)CC1	i	0.79
116	Clc1ccc(CSc2nnnn2-c2ccc3c(c2)OCO3)c(Cl)c1	i	-1.47
119	CCOc1ccc(NC(=O)n2ncc3c(C)cccc32)cc1	i	0.98

A portion of the library; rates above refer to the full screens.
